Anaer choline gr: blocks anaerobic gram-negative growth on choline; Gram-negative bacterium anaerobic choline minimal medium, absorbance growth; hits give low values; many inactives read as strong as hits in the columns shown; calls only; 0.2% of 55,000 active;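 active = growth z-score on choline under -2 at 7 or 20 h with little or no fall on glycerol, limits in tiers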;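 note: stock transfer was 300 nL into about 50 µL; the organism is E. coli; final concentration not given here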
Anaer choline gr early: second read-out of Anaer choline gr, no call of its own (marks repeat the call); z-score; measured here: choline growth z-score, timepoint 1;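 score of optical density at 7 h as mean of two plates; lower means less growth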
Numbers without * were called inactive; i = inactive; & = joins results of further samples.

SMILES | Anaer choline gr | Anaer choline gr early
CC1Oc2ccccc2N(CC(=O)Nc2nnc(Cc3cn(C)c4ccccc34)s2)C1=O (stereo not given) | i | -0.43
CCOC(=O)c1[nH]c(C)c(CCC(=O)Nc2nnc(CC)s2)c1C | i | -0.64
O=C(NCCN1CCOCC1)c1ccc2c(c1)N(Cc1ccccc1Cl)C(=O)c1ccccc1S2 | i | -0.03
O=C(NCC(c1ccccc1)c1c[nH]c2ccccc12)c1ccc(Br)cc1 (stereo not given) | i | 0.51
CCCCn1nc2c(S(=O)(=O)N3CCc4ccccc4C3)cccn2c1=O | i | -0.97
CCOc1cccc(C2Nc3ccc(F)cc3[C@H]3OCCC[C@@H]23)c1OC (stereo not given in full) | i | 0.15
Cc1nc(N2CCOCC2)cc(N2CCN(C(=O)Nc3ccc4c(c3)OCCO4)CC2)n1 | i | -0.38
Cc1ccc(-c2nc(C3CCN(S(=O)(=O)c4cccc(C)c4)CC3)no2)cc1 | i | 1.2
CC1(C)Cc2c(sc3ncn4nc(Cc5ccccc5)nc4c23)C(C)(C)N1 | i | 0.5
Cc1ccc(Cc2nc(CCNC(=O)NCC(C)C)n[nH]2)cc1 | i | -0.15
COC(=O)c1c(-c2ccccc2)noc1NC1CCCc2ccccc21 (stereo not given) | i | 1.3
CC(C)c1cc(=O)n2c(nc3ccccc32)[nH]1 | i | 0.01
COc1ccc(CN2CCCC2c2cc(C(C)C)on2)cc1COCC(F)(F)F (stereo not given) | i | -0.18
CCN1CCN(c2cc(C)nc3c(-c4ccc(F)cc4)cnn23)CC1 | i | -1.1
Cc1ccc(N(Cc2nc3nc(C)cc(=O)n3[nH]2)C(=O)C(C)(C)C)cc1 | i | 0.09
COc1ccc2nc3oc(C(=O)N4CCN(c5ccccn5)CC4)cc3cc2c1 | i | 0.91
O=C(CSc1ccc(S(=O)(=O)c2ccccc2)nn1)Nc1ccc2c(c1)OCO2 | i | 1.1
COc1ccc(NC(=O)c2cnc(N(C)C)nc2C)c(OC)c1 | i | 0.72
CCC1=NS(=O)(=O)c2cccnc2N1c1ccc(Br)c(C)c1 | i | 0.89
Cc1sc(-c2cc(C(F)(F)F)on2)cc1S(=O)(=O)Nc1ccc(Br)cc1F | i | -0.6
O=c1n(Cc2ccc(F)cc2)nc2c(S(=O)(=O)N3CCCCC3)cccn12 | i | 0.79
Cc1ccc(C2CCCN2S(=O)(=O)c2ccc3c(c2)OCCO3)cc1 (stereo not given) | i | 0.99
CCNc1cc(C)nc(N2CCN(S(=O)(=O)c3ccc(C)cc3C)CC2)n1 | i | 0.43
COc1ccc(CC(=O)Nc2ccc3nc(NC(=O)c4ccccc4)sc3c2)cc1OC | i | 2.4
CCNC(=O)CCC/C=C\C[C@@H]1[C@@H](CC[C@@H](O)CCc2ccccc2)[C@H](O)C[C@@H]1O | i | 1.1
CCCc1nnc(-c2cc3ccccc3n2CCC)o1 | i | -0.44
CCc1c(C2CCN(C(=O)Cc3cccs3)CC2)noc1N | i | -1.3
CCOC(=O)CC1C(=O)NCCN1C1CCCC1 (stereo not given) | i | -0.41
CC1CCN(c2oc(-c3ccc(Cl)cc3)nc2S(=O)(=O)c2ccccc2)CC1 | i | 0.04
c1nc2c(c(N3CCCCCC3)n1)CCC2 | i | -3.7
CNC(=O)Cc1ccc(-n2c(=O)c3ccccc3n(CC(=O)Nc3cccc(F)c3)c2=O)cc1 | i | -0.79
CCOc1ccccc1NC(=O)N1CCCC(C)(C(=O)NCc2cccc(OC)c2)C1 (stereo not given) | i | -0.98
O=C1CSc2ccc(S(=O)(=O)NCCC3=CCCCC3)cc2N1 | i | 0.25
Cc1ccc(-n2ccc(=O)c(-c3nc(-c4ccncc4)no3)n2)cc1 | i | -0.27
CCOc1ccc2nc(NC(=O)c3sc(COc4ccc(Cl)c(C)c4)nc3C)sc2c1 | i | -0.1
CC1CCc2c(sc3nc(CCC(=O)N4CCN(C5CCCCC5)CC4)[nH]c(=O)c23)C1 (stereo not given) | i | -0.38
CCS(=O)(=O)N1CCCN(c2nc3cc(Cl)ccc3n3cccc23)CC1 | i | 0.07
COc1cc2ncc(C(=O)c3ccccc3)c(N3CCOCC3)c2cc1OC | i | -0.48
Cc1ccc(-n2nc3c(N4CCCC(C(=O)NCc5cccnc5)C4)nnc(C)c3c2C)cc1 (stereo not given) | i | 0.21
O=C(NCc1csc(-c2ccccc2)n1)[C@H]1CSCN1C(=O)c1ccccc1 | i | 0.01
OC(CN1CCN(c2cccc(Cl)c2)CC1)C(c1ccccc1)c1ccccc1 (stereo not given) | i | -0.38
CCCN1CCN(Cc2nc3nc(C)cc(N4CCCC4)n3n2)CC1 | i | -1.7
CCCCN(C)c1ccc2nnc(CCc3nc(-c4ccccc4)no3)n2n1 | i | 0.53
C=Cc1ccc(Cn2c(=O)c3cccnc3n(-c3ccccc3)c2=O)cc1 | i | 0.09
COC(=O)c1cc(=O)c2cc(C)ccc2[nH]1 | i | -1.9
CN1C(=O)c2ccccc2Sc2cc(NC(=O)C3CCCO3)ccc21 (stereo not given) | i | -0.7
COc1ccc(OC)c(S(=O)(=O)Nc2cc3[nH]c(=O)[nH]c3cc2C)c1 | i | -0.94
CN(C)c1ccc(C(=O)N2CCC(COc3ccc(C(=O)N4CCCCC4)cc3)CC2)cc1 | i | 0.36
Cc1cc(C2CCCN2S(=O)(=O)c2c(C)noc2C)on1 (stereo not given) | i | -0.75
CNc1nc(C(N)=O)c(NC(=O)COc2ccc(Cl)cc2)s1 | i | 0.93

7 entries picked at random from those above, as already listed:
SMILES | Anaer choline gr | Anaer choline gr early
CCCCN(C)c1ccc2nnc(CCc3nc(-c4ccccc4)no3)n2n1 | i | 0.53
CNc1nc(C(N)=O)c(NC(=O)COc2ccc(Cl)cc2)s1 | i | 0.93
CCCN1CCN(Cc2nc3nc(C)cc(N4CCCC4)n3n2)CC1 | i | -1.7
COc1ccc(OC)c(S(=O)(=O)Nc2cc3[nH]c(=O)[nH]c3cc2C)c1 | i | -0.94
CN(C)c1ccc(C(=O)N2CCC(COc3ccc(C(=O)N4CCCCC4)cc3)CC2)cc1 | i | 0.36
OC(CN1CCN(c2cccc(Cl)c2)CC1)C(c1ccccc1)c1ccccc1 (stereo not given) | i | -0.38
CN1C(=O)c2ccccc2Sc2cc(NC(=O)C3CCCO3)ccc21 (stereo not given) | i | -0.7

The list goes on.
SMILES | Anaer choline gr | Anaer choline gr early
CCCn1c(=O)c2c(C(=O)NCCC3=CCCCC3)cc(=O)n(CCC)c2n(C)c1=O | i | 0.42
Cc1ccc(S(=O)(=O)c2nc3ccccc3nc2NCCc2ccccc2)cc1 | i | -0.35
Cn1cc(C(CNC(=O)Nc2ccccc2F)c2cccnc2)c2ccccc21 (stereo not given) | i | 0.32
O=C(NC1CCCC1)C1CCN(c2nccn3nc(-c4ccccc4)cc23)CC1 | i | 0.95
CCc1cc(C2CCCN2S(=O)(=O)c2ccc(Br)cc2)on1 (stereo not given) | i | 0.29
COc1cccc(-n2nnc3c(N4CCN(C(=O)C5CCCCC5)CC4)ncnc32)c1 | i | 1.3
Cc1ccc(S(=O)(=O)N2C(=O)CCC2C(=O)NCc2nc(-c3cccc(C)c3)no2)cc1 (stereo not given) | i | 0.74
Cc1ccc(CCNC(=O)CCc2nc3c(C)nn(-c4ccccc4)c3n(C)c2=O)cc1 | i | 1.1
CCCCN(C)c1ccc(NS(=O)(=O)c2ccc(F)cc2)c(C(=O)O)c1 | i | 0.35
Cc1ccc(OCc2nc3ccc(N)cc3[nH]2)cc1 | i | -0.96
CCC(=O)N1CCc2cc(N3CC(C(=O)NCc4ccc(C)o4)CC3=O)ccc21 (stereo not given) | i | -1.2
COC(=O)c1ccc(C(=O)Nc2sc3c(c2-c2nc4ccccc4s2)CCN(C(C)C)C3)cc1 | i | -1.1
COc1ccc(C2=Nc3ccccc3N(Cc3ccccc3)C(=O)C2)cc1 | i | 0.8
Cn1c(NC(=O)CSCc2ccccc2)cc(=O)n(C)c1=O | i | -0.03
COc1cccc(CNC(=O)c2ccc3cccc(O)c3n2)c1 | i | -0.85
O=C(O)CCc1nc2ccccc2[nH]1 | i | 0.2
Cc1cc(N2CCCCC2)nc(N2CCN(C(=O)C(C)(C)C)CC2)n1 | i | -0.62
Cc1ccc(C(=O)CN(c2nc3nc(C)cc(C)n3n2)S(=O)(=O)c2ccccc2)cc1 | i | 0.64
CN1CCN(C(CNS(=O)(=O)c2ccc3c(c2)CCCC3)c2ccc(N(C)C)cc2)CC1 (stereo not given) | i | -0.19
COc1ccc(CCNC(=O)c2nnc(-c3oc4ccccc4c3C)o2)cc1OC | i | -0.91

Record cards, as listed above. Values in the order: Anaer choline gr, Anaer choline gr early
COc1cccc(-n2nnc3c(N4CCN(C(=O)C5CCCCC5)CC4)ncnc32)c1 is entered as i, 1.3
COC(=O)c1cc(=O)c2cc(C)ccc2[nH]1 is entered as i, -1.9
Cn1c(NC(=O)CSCc2ccccc2)cc(=O)n(C)c1=O is entered as i, -0.03
CCCN1CCN(Cc2nc3nc(C)cc(N4CCCC4)n3n2)CC1 is entered as i, -1.7

(next part)
SMILES | Anaer choline gr | Anaer choline gr early
Cc1n[nH]c(C)c1CC(=O)Nc1ccccc1F | i | -0.55
Cc1nnc(-c2coc(S(=O)(=O)N(C)C3CCCCC3)c2)o1 | i | 0.21
CCn1nnc2c(N3CCC(O)CC3)ncnc21 | i | -1.3
Cc1ccc(C)c(N2CCN(C(=O)c3[nH]c(C)c(S(=O)(=O)N4CCOCC4)c3C)CC2)c1 | i | -0.63
CNC(=O)c1ccc2c(c1)CCN2S(C)(=O)=O | i | -0.37
Cn1nc(-c2nnc(-c3ccc(F)cc3)o2)c2c1CCN(S(=O)(=O)c1ccc(F)cc1)C2 | i | 0.68
CC(C)(C)c1ccc(C(=O)NCCc2nc(-c3ccccc3)no2)cc1 | i | -0.26
COc1cc2c(cc1OC)C(Cc1ccccc1Br)=NC(C)(C)C2 | i | -0.56
CCn1c(=O)c(C(=O)Nc2ccc3c(c2)OCO3)c(O)c2ccccc21 | i | -0.03
Cc1c(CNCCc2ccc(S(N)(=O)=O)cc2)c(C(=O)O)c(C)n1Cc1ccc(F)cc1 | i | -0.83
COc1ccc(OC)c(S(=O)(=O)N2CSC[C@@H]2C(=O)NCCc2csc(C)n2)c1 | i | 0.73
COCCNC(=O)CCc1nc(-c2nn(-c3ccccc3)c(=O)n(C)c2=O)no1 | i | -0.34
CCc1ccc(S(=O)(=O)N2CCC3(CC2)NCCN=C3NCc2ccc(F)cc2)cc1 | i | 0.66
Cc1ccc2cc3c(nc2c1)N(S(=O)(=O)c1ccc(C(C)C)cc1)CC3 | i | -1.5
O=C(CCc1nc2sc3c(c2c(=O)[nH]1)CCCCC3)NCc1ccccn1 | i | -0.27
Cc1ccc2c(c1)N(CC(=O)N1CCOCC1)C(=O)CO2 | i | -0.93
COC(=O)c1ccc(COC(=O)c2cccc(N3C(=O)c4c(C)nc5ccccc5c4C3=O)c2)cc1 | i | -0.07
O=C(CSc1ncnc2nc(N3CCSCC3)sc12)N1CCN(c2ccc(F)cc2)CC1 | i | -0.34
COc1ccc(-c2ccc(CNCc3cccs3)o2)cc1Cl | i | 0.1
O=C(NCCc1ccccc1)NCCn1c(CCc2ccccc2)nc2ccccc21 | i | 0.21
CC1(c2ccccc2)OC(C(=O)O)=CC1=O (stereo not given) | i | 0.86
COc1ccc(Cn2nc3c(S(=O)(=O)N4CCCCCC4)cccn3c2=O)cc1 | i | 0.01
CCOC(=O)c1c(NC(=O)CSc2cc(-c3ccccc3)nc(C)n2)sc2c1CCCC2 | i | 0.4
COc1cc(-c2ccno2)ccc1S(=O)(=O)NC1CCN(Cc2ccccc2)CC1 | i | -1.1
C#CCN(C)Cc1ccccc1 | i | -0.08&0.34
CCCC(O)c1nc2ccccc2n1CCCOc1cc(C)ccc1C (stereo not given) | i | 0.99
CCCS(=O)(=O)c1nc2ccc(NS(=O)(=O)c3ccc(C(C)(C)C)cc3)cc2s1 | i | -0.34
COc1ccc(Br)cc1CC1C(=O)Nc2ccccc21 (stereo not given) | i | -0.12
COc1ccc(Cl)cc1N1C(=O)[C@@H]2CCCN2[C@H]1c1ccc(Br)cc1 | i | -0.59
CCOc1ccc(-c2[nH]ncc2CN2CCCC2c2c(C)noc2C)cc1 (stereo not given) | i | 0.11

Next part; it opens with the 2 that closed the last part.
SMILES | Anaer choline gr | Anaer choline gr early
COc1ccc(Cl)cc1N1C(=O)[C@@H]2CCCN2[C@H]1c1ccc(Br)cc1 | i | -0.59
CCOc1ccc(-c2[nH]ncc2CN2CCCC2c2c(C)noc2C)cc1 (stereo not given) | i | 0.11
O=C(NCC1CCCO1)N1CCCn2nc(-c3cccc(Cl)c3)cc2C1 (stereo not given) | i | 0.88
CC(=O)N1CCCc2ccc(NS(=O)(=O)CCc3ccccc3)cc21 | i | 0.32
COc1ccc(Cl)cc1S(=O)(=O)Nc1ccc(-c2ccc(N3CCCC3)nn2)cc1 | i | 0.16
Cc1ccc(C)c(NS(=O)(=O)c2cc(-c3nc(C)c(C)s3)sc2C)c1 | i | -0.41
CNS(=O)(=O)c1cn(CC(=O)Nc2cccc(C)c2C)cc1S(=O)(=O)NC | i | 0.5
O=C(NCC1CCCO1)C1CCN(S(=O)(=O)c2cc(-c3noc(C4CCC4)n3)cs2)CC1 (stereo not given) | i | 0.49
COc1ccc(S(=O)(=O)Nc2ccc3c(c2)CCCN3S(C)(=O)=O)cc1C | i | -1.1
COc1ccc(C2c3cccn3-c3sc4c(c3CN2C(=O)Nc2ccc3c(c2)OCO3)CCN(C)C4)cc1 (stereo not given) | i | 0.27
Cc1cc(C)nc(-n2nc(C)c3c2NC(=O)CC3c2ccsc2)n1 (stereo not given) | i | -0.77
O=C(Nc1cnn(-c2ncc(N3CCCCC3)cn2)c1)C1CCCO1 (stereo not given) | i | 0.07
CCc1ccc(-n2c(=O)c3cccnc3n2CC(=O)Nc2ccc(F)cc2F)cc1 | i | 0.23
CCOC(=O)c1c(C)[nH]c(NC(=O)Nc2c(CC)cccc2CC)c1C | i | -0.4
Cc1nc2ccccn2c(=O)c1Cc1nnc(SCC(=O)Nc2cccc(Cl)c2C)n1C | i | -0.73

Screening data: PubChem, ICCB-Longwood Screening Facility, Harvard Medical School

Only part of the results is shown; count on the stated rates, not on these rows.
